D2 PAM: positive allosteric modulators of human D2 dopamine receptor; P14416; DiscoveRx D2 beta-arrestin cells, luminescence, 90 min; 100% = 57 uM dopamine signal; potentiation, % (test concentration not listed); hit rate 0.23% among 360,000; active = potentiation of 50% or more; inconclusive = 30% to 50%; inactive = 30% or less;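 note: compound concentration not given in the record; tested on top of an EC20 dose of dopamine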
Target sequence (P14416 whole entry, looked up): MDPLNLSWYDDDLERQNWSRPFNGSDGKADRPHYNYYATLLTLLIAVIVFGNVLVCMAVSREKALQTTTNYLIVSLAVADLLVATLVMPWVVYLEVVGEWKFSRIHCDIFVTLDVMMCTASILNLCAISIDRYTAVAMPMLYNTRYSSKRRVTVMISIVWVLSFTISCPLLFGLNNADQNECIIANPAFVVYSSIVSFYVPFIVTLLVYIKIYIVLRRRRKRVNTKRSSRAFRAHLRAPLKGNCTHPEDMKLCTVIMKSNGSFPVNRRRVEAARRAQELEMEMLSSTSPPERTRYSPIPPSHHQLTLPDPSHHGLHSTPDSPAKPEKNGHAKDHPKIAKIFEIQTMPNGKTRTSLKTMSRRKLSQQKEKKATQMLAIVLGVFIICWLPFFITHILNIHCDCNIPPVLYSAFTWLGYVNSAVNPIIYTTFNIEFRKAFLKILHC
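D2 cells co-treated with compound plus 50 nM dopamine (EC20) for 90 min at 37 deg C to detect potentiation. Beta-arrestin recruitment was read as enzyme-fragment luminescence after 1 h at ambient temperature. Full response was set by 57 uM dopamine.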
TRPML1 ag: activates the human TRPML1 channel; Q9GZU1; hit rate 0.12% among 410,000; TRPML1-expressing cells, Ca2+ dye fluorescence, FDSS; host cell line not named in the record; reference of the full effect not given here; activation, % (concentration not given with the values); AID 624414; in the data active = activation above about 50%; inconclusive = about 30% to 50%; inactive = below about 30%; note: 0% is about no effect; the text of the record puts the active cut at 80%
Target sequence (Q9GZU1 whole entry, looked up): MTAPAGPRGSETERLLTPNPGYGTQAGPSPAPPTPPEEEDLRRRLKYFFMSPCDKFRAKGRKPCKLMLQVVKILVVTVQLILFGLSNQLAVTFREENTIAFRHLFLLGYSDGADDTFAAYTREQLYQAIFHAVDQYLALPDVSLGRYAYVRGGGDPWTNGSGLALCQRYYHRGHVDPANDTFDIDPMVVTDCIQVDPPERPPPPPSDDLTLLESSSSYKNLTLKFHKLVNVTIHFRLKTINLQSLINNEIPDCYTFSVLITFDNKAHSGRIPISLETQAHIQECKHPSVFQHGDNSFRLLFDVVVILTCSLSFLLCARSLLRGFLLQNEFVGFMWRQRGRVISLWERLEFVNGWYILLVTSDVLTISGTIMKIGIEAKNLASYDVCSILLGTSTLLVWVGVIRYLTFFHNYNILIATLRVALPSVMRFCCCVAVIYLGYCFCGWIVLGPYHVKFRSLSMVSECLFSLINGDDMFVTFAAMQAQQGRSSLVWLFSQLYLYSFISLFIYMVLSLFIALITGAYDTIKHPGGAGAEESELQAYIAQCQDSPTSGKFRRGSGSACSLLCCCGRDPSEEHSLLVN
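Cells: TRPML1-DL, 1X Tet inducer, ~16 h at 37 degrees C/5% CO2. Dye: ABD Ca8 no-wash + quencher, 45-90 min RT. Read: 10 s baseline, compound add, 110 s agonist phase; 54-4 EC80 (4uM final), 110 s antagonist phase.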
D2 ag: activates the human D2 dopamine receptor. hit rate 0.084% among 360,000. activation, % (test concentration not listed). DiscoveRx PathHunter D2 beta-arrestin, luminescence, 90 min; 100% = 57 uM dopamine signal. P14416; in the data active = activation above about 40%; inconclusive = about 15% to 40%; inactive = below about 15%; note: compound concentration not given in the record; the text of the record calls up to 30% inactive
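DiscoveRx PathHunter D2 beta-arrestin cells (2,100/well) attached overnight, then compound-stimulated 90 min at 37 C in HBSS/10 mM HEPES/0.1% Tween-20 buffer; beta-galactosidase complementation read by luminescence after 1 h at ambient temperature. Dopamine 57 uM final (EC100) as control.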
Six1-Eya2 inh: inhibitors of human Six1/Eya2 interaction | AID 651725 | Q15475+O00167 | hit rate 0.56% among 360,000 | AlphaScreen GST-Six1/His-Eya2 binding, biochemical; stronger effect = lower value; control for the full effect not named in the record | activity change, % (concentration not given with the values); in the data active = activity change below about -65%; inconclusive = about -30% to -65%; inactive = above about -30%; note: % is set by controls: 0 for no effect and ±100 for the full control effect
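Six1/Eya2 binding was read as AlphaScreen signal after compounds were pinned into GST-Six1 plus His-tagged Eya2 (5X stock 250/500 nM) in pH 8.0 Tris/NaCl/TCEP buffer, beads added, then incubated 1 h, 37 C, dark.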
PINK1 expr mod: changes PINK1 expression | Potency, µM (doses to about 76.6 µM), for inactives: at the highest dose activation (PINK1 increase), actives largely listed as activators | hit rate 0.2% among 410,000 | PINK1 immunofluorescence, high-content cytometry, 24 h; active = well fitted activation curve with a large enough effect; inconclusive = small, poorly fitted or top-dose-only effect; inactive = flat fitted curve, though single readings scatter; cell line not stated here;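 note: potency is the fitted concentration of half-maximal effect; % of control where 0% means no effect; nearly all actives have a fitted effect of over 65% in size; a mitochondrial uncoupler was the plate control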
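Measures PINK1 amount and localization on or inside mitochondria by immunofluorescence. Stable cells get compounds at 5 concentrations for 24 hours before fixation and staining; CCCP controls included.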
TRPML1 blocker: inhibitors of human TRPML1 channel; Q9GZU1; TRPML1-inducible cells, Ca2+ dye fluorescence, FDSS; stronger effect = lower value; inhibition of EC80 agonist-evoked calcium signal; activity change, negative = inhibition, % (concentration not given with the values); hit rate 0.02% among 390,000; AID 624415; in the data active means activity change below about -50%; inconclusive means about -30% to -50%; inactive means above about -30%;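 note: stimulus is agonist 54-4 at its EC80 concentration; % is set by controls: 0 for no effect and ±100 for the full control effect; compound concentration not given in the record; the text of the record puts the active cut at -80%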
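TRPML1-DL cells, Tet-induced overnight (~16 h, 37 °C) at 1,500 cells/well, were loaded with Ca8 no-wash dye plus quencher for 45-90 min at room temperature. Compounds were pinned during FDSS kinetic reading; agonist 54-4 at EC80 (4 uM final) then added.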
The depositor's hits bear a star; ? = inconclusive; · = not tested or not shown; & = joins results of further samples; [ ] = dose if it differs, or a comment.

SMILES	D2 PAM	TRPML1 ag	D2 ag	Six1-Eya2 inh	PINK1 expr mod	TRPML1 blocker
CC(=O)NC(=O)c1cnn(-c2ccccc2)c1N	0	0.1	-5.5	10	-0.2%	1
O=S(=O)(NCc1cn2ccccc2n1)c1ccccc1F	-10	-0.5	-2.4	1	0.2%	0
CCOC(=O)[C@]12CCCC=C1N(Cc1ccco1)C(=O)[C@H](CC(=O)N1CCOCC1)C2	·	-0.5	·	8	1.2%	·
C=CCn1c(=O)[nH]c2cc(C(=O)N3CCN(c4ccc(C(C)=O)cc4)CC3)ccc2c1=O	4	-0.8	-3.2	-7	8.3%[38.3 µM]	-16
COc1ccc(-c2nnc(SCC(=O)N3CCCCC3)o2)c(OC)c1	-16	-0.4	0.0	-3	2.0%[38.3 µM]	5
Cc1cc(Oc2ccc(=O)n(C)n2)nc(SCC(N)=O)n1	-1	0.9	-1.8	6	0.4%	10
COc1cc(OC)c(OC)cc1/C=C/C(=O)OCC(=O)Nc1c(C)n(C)n(-c2ccccc2)c1=O	-7	0.0	-5.0	4	-0.1%	-11
Cc1ccc(/C=N/NC(=O)CC(=O)NCc2cccnc2)cc1	6	0.7	-3.8	10	3.4%	46
CC(C)Cc1ccc(C(C)C(N)=Nc2ccc(O)cc2)cc1 (configuration not stated)	-5	1.8	-4.8	-4	6.5%	-1
Cc1nn2c(N3CCOCC3)cc(C(C)C)nc2c1-c1ccccc1	0	2.1	-1.3	-1	0.4%	3
C/C=C/c1cnc2c(c1)C(=O)N([C@@H](C)CO)C[C@H](C)[C@@H](CN(C)S(=O)(=O)c1ccc(C)cc1)O2	-9	1.1	-0.2	13	1.8%	4
COc1ccc(C(=O)C[n+]2ccc3c(c2)nnn3-c2ccccc2)cc1	-15	1.7	0.1	0	0.2%	-9
CC(C)(C)OC(=O)N1CCN(c2ccc(NC(=O)c3ccco3)cc2)CC1	-7	-0.7	0.1	-10	0.5%	10
COc1ccc(/C=N/NC(=O)c2cccnc2)cc1CSc1ccccn1	-3	0.9	2.4	-6	8.2%	5
Cc1nc2c(-c3ccccc3)c(C)nn2c(C)c1CCC(=O)NCc1ccco1	-1	-0.2	-9.1	-5	6.3%	-2
O=[N+]([O-])c1cncc([N+](=O)[O-])c1Nc1ccccc1Cl	0	-0.3	6.7	-20	-1.7%	-3
CCCc1nn(C)c(C(N)=O)c1[N+](=O)[O-]	-3	-0.6	-2.3	10	0.0%	4
Cc1cccc(NC(=O)CN2CCN(CC(=O)Nc3ccc(-c4ccccc4)cc3)CC2)c1C	-6	-0.3	0.4	-5	3.2%	25
Cc1cc(C2=CC(=O)C[C@H](c3ccc4c(c3)OCO4)C2)ccc1F	-14	0.0	-0.7	-12	1.3%	-1
O=C(NCc1ccc2c(c1)OCO2)c1ccc2c(c1)C(=O)N(Cc1cccnc1)C2=O	-9	1.1	-1.3	-16	-1.7%	5
CCOC(=O)c1c(-c2ccco2)csc1NC(=O)COC(=O)c1cnc(C)cn1	-17	0.5	-3.7	-9	-1.8%	-6
C=CCc1cccc(/C=N/c2ncccc2O)c1O	?	0.7	5.9	-9	-0.3%[38.3 µM]	-13
CCCOc1ccc(C(=O)Nc2ccc3c(c2)OCO3)cc1	-8	0.8	-2.4	1	7.8%	24
O=C(Nc1ccncc1)c1ccc(Cl)c([N+](=O)[O-])c1	-2	·	7.6	-1	0.1%	·
CN1CCCC(CC2Oc3ccccc3Sc3ccccc32)C1 (configuration not stated)	-17	0.4	-6.0	-4	-4.0%	1

Two consecutive entries already listed, quoted:
SMILES	D2 PAM	TRPML1 ag	D2 ag	Six1-Eya2 inh	PINK1 expr mod	TRPML1 blocker
O=C(Nc1ccncc1)c1ccc(Cl)c([N+](=O)[O-])c1	-2	·	7.6	-1	0.1%	·
CN1CCCC(CC2Oc3ccccc3Sc3ccccc32)C1 (configuration not stated)	-17	0.4	-6.0	-4	-4.0%	1

Further structures follow:
SMILES	D2 PAM	TRPML1 ag	D2 ag	Six1-Eya2 inh	PINK1 expr mod	TRPML1 blocker
CC(=O)c1cccc(NC(=O)C(=O)Nc2cccc3ccccc23)c1	-4	2.6	-0.4	3	15%	-6
Cc1ccc(N2CC(C(=O)NCc3ccco3)CC2=O)cc1Cl (configuration not stated)	-5	0.6	1.2	8	-0.5%	22
CCCn1c(=O)c(C(=O)NCc2ccc3c(c2)OCO3)c(O)c2ccccc21	-16	-0.1	-5.0	7	14%	7
Cc1ccc(S(=O)(=O)NCCC(=O)NC2CCCCCC2)cc1C	-11	5.5	-4.8	3	0.9%	15
CN(C)S(=O)(=O)c1cccc(NC(=O)COC(=O)COc2ccccc2[N+](=O)[O-])c1	-5	-0.6	-1.7	-7	1.3%	37
O=C(NN1C(=O)/C(=C/c2ccc(O)cc2)SC1=S)c1cccc(O)c1	-41	?	-7.5	-1	-0.9%	4
CC(C)OP(=O)(OC(C)C)C(NC(=O)c1ccc(Br)cc1)c1ccccc1 (configuration not stated)	-12	0.1	-5.0	6	?	-17
CC1CCCCC1NC(=O)CSc1nnc(CN2CCOCC2)n1C (configuration not stated)	-3	-0.8	-4.0	-1	0.4%	1
Cn1cccc1C1C(C#N)=C(N)OC2=C1C(=O)CCC2 (configuration not stated)	-3	1.4	-0.4	0	0.7%	14
COc1ccccc1NC(=O)CCC(=O)Nc1cc(OC)c(NC(=O)c2cccs2)cc1OC	6	-0.5	4.8	-95*	-0.2%	5
Cc1cccc2cc(CN(Cc3ccc(F)cc3)C(=O)N3CCOCC3)c(=O)[nH]c12	6	4.2	1.7	4	0.2%[38.3 µM]	-13
Cc1ccc(S(=O)(=O)c2cn(Cc3ccc(F)cc3)c3cc(N4CCCC4)c(F)cc3c2=O)cc1	·	-0.9	·	·	-1.9%	-2
O=C(COC(=O)c1ccc(O)cc1)NC1CCCCCCC1	-16	-1.0	-1.7	-6	4.1%	-7
Cc1ccc(Cc2c(C3CCCCC3)nc3ccc(Br)cn23)cc1	-8	-0.1	-6.9	2	?	·
CCc1cccc(CC)c1NC(=O)c1cccc(N)c1	-5	3.9	-2.4	5	-0.4%	7
Clc1ccccc1CSC1=NCCN1	-4	-0.6	-4.0	2	1.1%	5
CC(C)CN(C(=O)c1ccc(S(=O)(=O)N2CCOCC2)cc1)C1CCS(=O)(=O)C1 (configuration not stated)	-8	-0.2	-2.9	4	-0.7%	7
Cc1c(/C=C/C(=O)c2ccc(O)cc2)cnn1C	-22	-0.5	-1.8	1	1.9%	-5
O=C(NCc1ccncc1)C(F)(F)C(F)(F)C(=O)NCc1ccncc1	3	5.1	-1.8	2	-0.1%	12
Cc1ccc(OCC(=O)NC(C)c2ccccc2)c([N+](=O)[O-])n1 (configuration not stated)	-7	-0.6	1.1	-3	1.2%	0
COc1ccc([C@H]2CC(=O)C=C(c3c(C)cc(C)cc3C)C2)cc1	8	1.6	-2.3	11	2.1%	42
CC(=O)CC1c2cc(F)ccc2C=C(c2ccsc2)N1c1ccc(C#CC2(O)CCCCC2)cc1 (configuration not stated)	·	-0.5	·	2	0.9%	·
Cc1cccc(C)c1NC(=O)C(C)NCc1cccs1 (configuration not stated)	-6	-1.1	-1.2	-9	0.0%	4
O=C(CSc1n[nH]c(-c2cccnc2)n1)Nc1ccccc1C(F)(F)F	-3	-0.2	-1.5	6	-1.1%	-9
COc1ccccc1NC(=O)N(C)C[C@@H]1Oc2ncc(Br)cc2C(=O)N([C@H](C)CO)C[C@@H]1C	0	-0.5	-3.1	2	0.7%	12

2 entries from above, as labelled records.
CCCn1c(=O)c(C(=O)NCc2ccc3c(c2)OCO3)c(O)c2ccccc21
  D2 PAM: -16; TRPML1 ag: -0.1; D2 ag: -5.0; Six1-Eya2 inh: 7; PINK1 expr mod: 14%; TRPML1 blocker: 7

Cc1ccc(S(=O)(=O)NCCC(=O)NC2CCCCCC2)cc1C
  D2 PAM: -11; TRPML1 ag: 5.5; D2 ag: -4.8; Six1-Eya2 inh: 3; PINK1 expr mod: 0.9%; TRPML1 blocker: 15

Carrying on:
SMILES	D2 PAM	TRPML1 ag	D2 ag	Six1-Eya2 inh	PINK1 expr mod	TRPML1 blocker
O=C(O)CC(C(=O)OCC1CCCO1)N1CCOCC1 (configuration not stated)	-8	1.6	-0.3	3	-0.3%	-4
Cn1c(SCC(=O)NC2CCCC2)nc2cccnc21	-4	2.1	2.0	-1	0.7%	-8
O=C1NCCCC1C(=O)N/N=C/c1cccc(O)c1 (configuration not stated)	-6	-0.2	-2.9	-3	-0.3%	11
COC(=O)C1=C(C(=O)OC)[C@@H]2N(C)c3ccccc3[C@@]23C[C@@H](C(=O)OC)N(C(=O)c2cc(C)oc2C)C3=N1	-7	-0.1	-2.6	-13	1.5%	-14
CC(C)(C)NC(=O)CSc1nc(N)cc(=O)[nH]1	2	0.3	2.2	8	0.0%	-13
COc1cc([N+](=O)[O-])cc2sc(NC(C)=O)nc12	-14	-0.1	-1.5	-7	-0.1%	4
COc1ccc(C)cc1NC(=O)N1CCN(S(=O)(=O)c2ccc3c(ccn3C)c2)CC1	·	1.6	·	·	1.7%	7
Cc1ccc2c(c1)c1c(c(=O)n(-c3ccccc3C)c(=O)n1CC(=O)NCC1CCCO1)n2C (configuration not stated)	-4	-0.6&0.0	-6.4	-6	1.0%&-0.4%	6&1
O=C(c1ccc(Cl)c([N+](=O)[O-])c1)N1CCN(Cc2ccc3c(c2)OCO3)CC1	-9	-0.3	3.3	-1	3.3%	5
N#CC1=C2N=C(N)c3c(sc4c3CCCCC4)N2C2=C(C(=O)CCC2)C1c1ccccc1 (configuration not stated)	-10	0.7	-2.8	-24	2.0%	10
Cc1ccc2[nH]c3c(=O)n4c(nc3c2c1)SCC4	1	0.2	3.9	-16	1.8%	12
Cc1nn(C)c(Cl)c1S(=O)(=O)N[C@@H](c1ccccc1)[C@]1(C)C[C@H]1[C@@H](C)C(=O)Nc1ccc2ccccc2c1	-8	1.4	-1.4	3	1.7%	1
CCn1c(COc2ccc(=O)n(-c3ccccc3)n2)n[nH]c1=S	0	-0.7	2.1	6	2.9%	12
COc1ccc(-n2c(=O)c3sc4ccccc4c3n(CC(=O)Nc3ccccc3F)c2=O)cc1	·	-0.3	·	·	1.2%	-16
CN1CCN(CCCNc2nc3ccccc3c3nc(-c4ccccc4)nn23)CC1	-9	-0.4	-0.9	?	3.0%	9
Fc1ccccc1CSc1nc2ccccc2[nH]1	3	0.7	-0.7	12	-0.9%	1
CCCc1c(O)nc(SCCN(CC)CC)[nH]c1=O	-6	1.1	-0.7	3	-1.8%	-14
Cc1ccc(OCC(=O)NCc2n[nH]c(=O)c3ccccc23)cc1	7	-1.0	-1.5	6	-0.7%	11
CC(=O)c1ccc(COC(=O)Cc2ccc([N+](=O)[O-])cc2)cc1	10	·	0.7	-1	2.2%	·
Cc1cc(OCC(=O)Nc2c(C(C)C)cccc2C(C)C)no1	1	-0.6	-2.4	-1	1.2%	1
CCc1ccc(C2CC(=O)c3c([nH]c(C(=O)OCC4CCCCC4)c3C)C2)cc1 (configuration not stated)	·	0.1	·	·	0.2%	10
CCc1nn(CC(=O)NCCCOC)c(=O)c2cc3ccccc3n12	·	-0.7	·	·	0.0%	-2
